Six1-Eya2 inh – inhibitors of human Six1/Eya2 interaction; Q15475+O00167; AlphaScreen GST-Six1/His-Eya2 binding, biochemical; stronger effect = lower value; control for the full effect not named in the record; activity change, % (concentration not given with the values); 0.56% of 360,000 active; in the data active = activity change below about -65%; inconclusive = about -30% to -65%; inactive = above about -30%; further: on the % scale 0 is the no-effect control and ±100 the full control effect
Target sequence (O00167 whole entry, looked up): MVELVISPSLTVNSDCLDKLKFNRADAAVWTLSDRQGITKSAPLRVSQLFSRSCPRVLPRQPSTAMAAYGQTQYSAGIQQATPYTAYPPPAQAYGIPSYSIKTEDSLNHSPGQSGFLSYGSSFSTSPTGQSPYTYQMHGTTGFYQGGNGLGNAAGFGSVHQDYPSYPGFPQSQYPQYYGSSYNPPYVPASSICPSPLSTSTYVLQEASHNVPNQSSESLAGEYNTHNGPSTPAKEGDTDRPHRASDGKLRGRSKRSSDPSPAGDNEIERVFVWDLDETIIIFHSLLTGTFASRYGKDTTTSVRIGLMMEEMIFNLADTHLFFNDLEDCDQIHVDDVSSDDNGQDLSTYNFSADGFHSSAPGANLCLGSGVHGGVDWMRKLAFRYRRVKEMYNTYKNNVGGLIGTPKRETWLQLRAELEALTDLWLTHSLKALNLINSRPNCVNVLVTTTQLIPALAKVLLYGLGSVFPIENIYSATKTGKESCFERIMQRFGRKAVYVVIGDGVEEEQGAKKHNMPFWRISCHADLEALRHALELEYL
Target sequence (Q15475 whole entry, looked up): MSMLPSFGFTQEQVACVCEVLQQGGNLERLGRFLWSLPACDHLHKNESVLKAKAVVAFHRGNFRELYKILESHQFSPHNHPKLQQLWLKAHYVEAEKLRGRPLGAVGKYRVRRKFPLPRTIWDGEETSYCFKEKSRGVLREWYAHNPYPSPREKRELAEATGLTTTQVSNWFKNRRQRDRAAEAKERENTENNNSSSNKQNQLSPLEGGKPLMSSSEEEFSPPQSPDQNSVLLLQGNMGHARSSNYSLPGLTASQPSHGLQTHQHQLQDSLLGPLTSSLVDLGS
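AlphaScreen with GST-Six1 and His-Eya2 (5X mix: 250 nM and 500 nM), glutathione donor and nickel acceptor beads; buffer 50 mM Tris pH 8.0, 300 mM NaCl, 1 mM TCEP; 1 h at 37 C in the dark.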
PINK1 modulator – PINK1 expression modulation. PINK1 immunofluorescence, high-content cytometry, 24 h. Potency, µM (doses to about 76.6 µM), inactives show at the highest dose activation (PINK1 increase), usual class: activators. 0.2% of 410,000 active; active = well fitted activation curve with a large enough effect; inconclusive = small, poorly fitted or top-dose-only effect; inactive = flat fitted curve, though single readings scatter; cell line not stated here;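 further: potency means the concentration at half of the fitted maximal effect; % of control where 0% means no effect; nearly all actives have a fitted effect of over 65% in size; a mitochondrial uncoupler was the plate control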
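A stable cell line was treated with compounds at 5 concentrations for 24 hours, with CCCP as control. PINK1 levels and mitochondrial localization were measured by immunofluorescence with mitochondrial, cell and nuclear markers after fixation, read by laser-scanning cytometry.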
TRPML1 blocker – human mucolipin-1 channel inhibition | activity change, negative = inhibition, % (no concentration beside the values) | 0.02% of 390,000 active | AID 624415 | TRPML1-inducible cells, Ca2+ dye fluorescence, FDSS; stronger effect = lower value; inhibition of EC80 agonist-evoked calcium signal; in the data active means activity change below about -50%; inconclusive means about -30% to -50%; inactive means above about -30%;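 further: stimulus is agonist 54-4 at its EC80 concentration; on the % scale 0 is the no-effect control and ±100 the full control effect; compound concentration not given in the record; the text of the record puts the active cut at -80%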
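Tet-induced TRPML1-DL cells loaded with Ca8 no-wash calcium dye were read kinetically on FDSS. Compound addition was followed by EC80 agonist 54-4 (4 uM final); inhibition was read over 110 s.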
D2 PAM – positive allosteric modulators of human D2 dopamine receptor | P14416 | DiscoveRx D2 beta-arrestin cells, luminescence, 90 min; 100% = 57 uM dopamine signal | potentiation, % (concentration not given with the values) | 0.23% of 360,000 active; active = potentiation of 50% or more; inconclusive = 30% to 50%; inactive = 30% or less;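 further: compound concentration not given in the record; tested on top of an EC20 dose of dopamine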
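PathHunter beta-arrestin assay in DiscoveRx D2 cells. Compounds were added with an EC20 of dopamine (50 nM final) for 90 min at 37 deg C. Luminescence was read 1 h after detection reagent, with 57 uM dopamine as the EC100 control.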
TRPML1 agonist – activates the human TRPML1 channel; Q9GZU1; TRPML1-expressing cells, Ca2+ dye fluorescence, FDSS; host cell line not named in the record; reference of the full effect not given here; activation, % (no concentration beside the values); 0.12% of 410,000 active; AID 624414; in the data active = activation above about 50%; inconclusive = about 30% to 50%; inactive = below about 30%; further: 0% is about no effect; the text of the record puts the active cut at 80%
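In this qHTS format, compounds were pin-transferred onto Ca8-dye-loaded TRPML1-DL cells induced with Tet overnight, and intracellular Ca2+ fluorescence was recorded kinetically for 110 s after a 10 s baseline. A subsequent 4uM final 54-4 (EC80) addition followed by a second 110 s read served as the antagonist phase.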
D2 ag – activates the human D2 dopamine receptor; DiscoveRx PathHunter D2 beta-arrestin, luminescence, 90 min; 100% = 57 uM dopamine signal; 0.084% of 360,000 active; P14416; activation, % (concentration not given with the values); AID 624465; in the data active = activation above about 40%; inconclusive = about 15% to 40%; inactive = below about 15%; further: compound concentration not given in the record; the text of the record calls up to 30% inactive
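Agonist mode: compounds alone added to overnight-plated D2 PathHunter cells for 90 min at 37 C, with 57 uM final dopamine (EC100) defining full response. Beta-arrestin recruitment detected by chemiluminescent reagent, read after 1 h at ambient temperature.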
An asterisk follows results filed as active; ? = inconclusive; · = not tested or not shown; & = joins results of further samples; [ ] = dose if it differs, or a comment.

The opening two compounds as a preview:
canonical_smiles	Six1-Eya2 inh	PINK1 modulator	TRPML1 blocker	D2 PAM	TRPML1 agonist	D2 ag
Cc1ccc(S(=O)(=O)N(C)c2ccc(C(=O)NCc3ccccc3F)cc2)cc1	-1	-3.0%	-1	-23	2.2	-6.0
CNc1ccccc(-c2ccc3cc4c(cc3n2)OCO4)c1=O	6	12%	0	14	0.9	-0.1

The listing (from the top)
canonical_smiles	Six1-Eya2 inh	PINK1 modulator	TRPML1 blocker	D2 PAM	TRPML1 agonist	D2 ag
Cc1ccc(S(=O)(=O)N(C)c2ccc(C(=O)NCc3ccccc3F)cc2)cc1	-1	-3.0%	-1	-23	2.2	-6.0
CNc1ccccc(-c2ccc3cc4c(cc3n2)OCO4)c1=O	6	12%	0	14	0.9	-0.1
O=C(CN1CCN(c2ccc(F)cc2)CC1)c1cccs1	-13	-1.6%	-19	-21	0.5	11
COc1ccc(OCCOC(=O)CN2C(=O)NC3(CCCC3)C2=O)cc1	7	-3.3%	-5	6	1.4	2.5
CCc1nnnn1-c1ccc([N+](=O)[O-])cc1C	11	-0.2%	-15	-5	-0.1	-1.5
Cc1coc2c1c(C)cc1oc(=O)c(CC(=O)N[C@@H](C)C(=O)O)c(C)c12	1	0.5%	9	-2	0.6	1.5
O=C(c1n[nH]c(=O)c2ccccc12)N1CCOCC1	-3	0.3%	16	-9	0.4	-5.4
O=C(c1ccc(Cl)c([N+](=O)[O-])c1)N(Cc1cccc(Cl)c1)C1CCS(=O)(=O)C1 (stereo unspecified)	5	5.4%	-7	14	-0.5	4.8
Cc1ccc(OCCC(=O)OCC(=O)Nc2ccc3[nH]c(=O)[nH]c3c2)cc1	2	0.5%	-11	-4	-0.2	8.7
O=C(c1cscn1)N1CCCC(N2CCN(c3ccc(F)cc3)CC2)C1 (stereo unspecified)	-1	0.6%	-1	-17	-0.5	0.0
COc1ccc(CCNC(=O)C(=O)NCC(c2ccco2)S(=O)(=O)c2ccc(F)cc2)cc1 (stereo unspecified)	·	-0.7%	11	·	0.5	·
O=C(NCC1CCCO1)c1c(O)nc2sccn2c1=O (stereo unspecified)	4	-1.9%	-21	0	0.3	-1.3
O=C(Nc1ccc(N2CCOCC2)c(S(=O)(=O)Nc2ccccc2Cl)c1)c1ccccc1	-6	0.6%	31	0	0.8	3.0
COC(=O)[C@@H](Cc1ccccc1)NC(=O)/C=C/[C@H]1O[C@@H](n2cnc3c(NC(=O)c4ccccc4)ncnc32)[C@H](O)[C@@H]1O	2	0.9%	·	-4	-0.2	-4.7
COc1ccccc1C(=O)NCCNC(=O)c1ccc(C)nc1	2	-1.2%	2	-2	-0.3	-0.3
Cc1cc(C(=O)N/N=C2\CC(=O)c3ccccc32)c(C)n1-c1ccccc1	-18	6.2%	27	14	1.0	-0.1
O=C(N[C@H]1/C=C\[C@@H](O)CCCC1)OCc1ccccc1	1	-0.1%	64	·	-0.5	0.6
CC1(C)CC(=O)C2=C(C1)N(c1ccc(F)cc1)C(N)=C(C#N)C2c1cccs1 (stereo unspecified)	-1	2.8%	-12	-11	0.1	-1.3
CC(C)(C)NC(=O)NC(=O)CN1C(=O)NC(c2ccccc2)(c2ccccc2)C1=O	-2	1.7%	12	-1	1.2	4.2
CN(C)S(=O)(=O)c1ccc(S(=O)(=O)N(Cc2ccco2)Cc2ccccc2Cl)cc1	2	3.7%[38.3 µM]	-18	2	64*	1.8
CN1c2ccccc2Oc2nnc(N3CCN(Cc4ccccc4)CC3)cc21	?	-0.5%	25	-14	-0.6	-2.3
Cc1ccc(-c2csc(/C=C3\SC(C)C(=O)N3CC(=O)Nc3ccccc3F)n2)cc1 (stereo unspecified)	1	4.4%	4	-5	-0.8	-0.6
COc1ccc(-c2nc(SCC(=O)NC(C)CCc3ccccc3)n[nH]2)cc1 (stereo unspecified)	·	-0.8%	-20	·	-0.4	·
CC(=O)CSc1ncnc2c1oc1ccccc12	0	-3.0%	13	0	-0.4	-4.0
Cn1ncc(Cl)c1C(=O)N1CCN(S(=O)(=O)c2ccc(Cl)s2)CC1	-1	-1.0%	-11	8	0.2	2.2
CCOc1ccc(N2CC(NC(=O)c3ccc(S(=O)(=O)N4CCCC4)cc3)CC2=O)cc1 (stereo unspecified)	·	1.4%	18	·	0.1	·
COc1ccc(C(CC(=O)O)NC(=O)Nc2ccccc2)cc1OC (stereo unspecified)	4	-0.5%	-2	-5	0.2	-3.5
CCNc1nc(OC)nc(SCC(N)=O)n1	-2	2.9%	27	-11	-1.0	-1.7
N#C/C(=C\c1ccc([N+](=O)[O-])cc1)C(=O)Nc1ccccc1O	-12	2.7%	23	?	-0.1	2.3
CCc1ccccc1NC(=O)c1ccccc1N1C(=O)C2C3C=CC(C3)C2C1=O (stereo unspecified)	13	-0.6%	-4	-25	-0.7	-2.8
O=C(c1ccc2c(c1)N(Cc1ccc(Cl)cc1)C(=O)c1ccccc1S2(=O)=O)N1CCCCC1	·	0.6%	2	·	-1.0	·
CN(Cc1cnn(C)c1)C(=O)C1CCC(=O)N(Cc2cccc(F)c2)C1 (stereo unspecified)	10	0.7%	7	3	-0.4	0.6
CCN1CNC(=S)N(c2cccc(C)c2C)C1	5	?	7	6	-0.7	-2.5
CCC(C(=O)N1CCN(c2ccccc2F)CC1)n1nc(C)c2sc3ccccc3c2c1=O (stereo unspecified)	·	2.1%	15	·	0.7	·
Nc1ccc2c(c1)C(=O)c1cc(Cl)c(Cl)cc1-2	-23	3.7%	7	-12	-0.9	-3.6
COc1ccc(C2=NN(c3nc(-c4ccccc4)c(CC(=O)O)s3)C(c3ccco3)C2)cc1 (stereo unspecified)	-5	1.1%	-7	-14	1.2	0.1
Cc1ccc(S(=O)(=O)N2CCN(C(=O)CSc3nnnn3C)CC2)c(C)c1	-2	1.9%	23	-4	0.5	-5.3
COc1cc(NC(=O)c2cnc(N)s2)cc(C(=O)Nc2cccc(C(F)(F)F)c2)c1	0&-7	-1.4%&3.0%	-5&35	-3&-8	2.7&-0.4	5.7&-1.7
Cc1cccc(NC(=S)NNC(=O)c2csc3c2CCCC3)c1	-5	1.5%[38.3 µM]	15	-19	1.4	-5.7
CCOCCCNC(=O)C1CC(=O)N(CCc2ccccc2)C1 (stereo unspecified)	9	1.9%	·	4	·	-2.2

Other results follow:
Each structure is followed by: Six1-Eya2 inh	PINK1 modulator	TRPML1 blocker	D2 PAM	TRPML1 agonist	D2 ag
Cc1ccc(S(=O)(=O)NC(=O)NN2CC3CCCC3C2)cc1 (stereo unspecified)
    2	-1.2%&-0.4%	33	7	-0.5	12
COc1ccc(CCNS(=O)(=O)c2ccc3c(c2)NC(=O)CCS3)cc1OC
    20	-0.3%	-18	-2	-1.2	-1.0
CS(=O)(=O)N1CCN(c2ccccc2NC(=O)C(c2ccccc2)c2ccccc2)CC1
    -2	1.8%[38.3 µM]	4	-3	-0.2	-1.1
CCCC(=O)CN1C(=O)C2(OCCO2)c2ccccc21
    -1	-1.2%	4	-17	0.0	-0.6
NC(=O)c1oc2ccccc2c1NC(=O)C1CCCCC1
    3	1.5%	4	-6	-0.8	-1.9
Cc1cc(S(=O)(=O)Nc2ccc3cn[nH]c3c2)c(C)cc1Cl
    -7	2.5%	-2	-5	-0.8	2.0
Cc1cc(C)nc(NC(=O)c2ccc(Cl)cc2[N+](=O)[O-])c1
    -3	-0.9%	-17	5	1.7	-2.9
COc1ccc(OC)c(C(=O)CSc2nc3cccnc3n2C)c1
    -4	-1.0%	4	2	2.6	-0.3
CC1CC(C)(C)NC(=S)N1CCC(=O)NCc1ccc(F)cc1 (stereo unspecified)
    1	-0.7%	15	-4	1.0	-3.1
COc1ccc(C2=NCCn3nc4cc(OC)ccc4c32)cc1
    -5	3.5%	-3	-11	0.2	-3.1
CNc1c([N+](=O)[O-])cnn1-c1ccccc1Cl
    4	-1.1%	8	-2	-0.7	0.0
CCOC(=O)c1cnc2ccccc2c1Nc1ccc(C(=O)O)cc1
    -8	-0.1%	-8	-1	0.0	-2.1
CCOC(=O)c1c(C)c(C(=O)NCCOC)c(C)n1CC
    -2	-1.8%[38.3 µM]	-13	-7	0.7	-0.3
COCCNC(=S)N(CCN(C)C)Cc1cc2cc3c(cc2[nH]c1=O)OCO3
    4	-1.2%	6	-10	-0.4	-2.7
C[C@@H]1NC(=O)[C@H](CCCN=C(N)N)NC(=O)c2cc([N+](=O)[O-])cc(I)c2NCCC[C@@H](C(N)=O)NC1=O
    0	0.8%	-4	-10	0.0	-2.8
O=C(Nc1cccc(F)c1)c1sc(Cl)nc1-c1ccccc1
    5	-0.2%	14	23	-0.2	5.7
CCNc1nc(NC(C)C)nc(Oc2ccc(OCCOc3ccc(C)cc3)nn2)n1
    -3	0.9%[38.3 µM]	2	-9	2.7	-0.4
Cc1c(C(=O)O)oc2c1C(O)CC(C)(C)C2 (stereo unspecified)
    1&5	9.0%[38.3 µM]	-11&-11	0&-14	0.1&0.0	1.6&0.6
Cc1ccc(C(OC(=O)c2ccco2)C(=O)NC2CCCC2)cc1 (stereo unspecified)
    2	1.5%	4	-4	1.9	0.2
O=C(C1=C(O)C(=O)N(CCN2CCOCC2)C1c1ccc([N+](=O)[O-])cc1)c1cccs1 (stereo unspecified)
    -9	0.7%	-7	-5	-0.1	-4.6
CCc1nc(NC(=O)NS(=O)(=O)c2ccccc2C(=O)OC)nc(OC)n1
    6	-0.4%	-1	-4	-0.1	2.2
N#CCCN(C(=O)CSc1nc(-c2ccccc2)cn1N)c1ccc(F)cc1
    -1	-2.3%	-3	-8	3.9	-2.8
CN(C)c1ccc(C(CNC(=O)COc2ccc(Cl)cc2)N2CCCC2)cc1 (stereo unspecified)
    -29	-1.3%	-8	-18	2.9	-0.8
O=C(Cc1ccc([N+](=O)[O-])cc1)Nc1cccc(C(=O)N2CCCC2)c1
    -1	2.7%	22	-3	1.0	-3.2
CN(Cc1ccc(Br)cc1)C(=O)CCN1C(=O)c2cccc([N+](=O)[O-])c2C1=O
    0	2.9%	-8	-7	-1.4	-5.0

Results in PINK1 modulator (4 entries from above):
| Structure | PINK1 modulator |
| --- | --- |
| Cc1c(C(=O)O)oc2c1C(O)CC(C)(C)C2 (stereo unspecified) | 9.0%[38.3 µM] |
| Cc1ccc(C(OC(=O)c2ccco2)C(=O)NC2CCCC2)cc1 (stereo unspecified) | 1.5% |
| O=C(C1=C(O)C(=O)N(CCN2CCOCC2)C1c1ccc([N+](=O)[O-])cc1)c1cccs1 (stereo unspecified) | 0.7% |
| CCc1nc(NC(=O)NS(=O)(=O)c2ccccc2C(=O)OC)nc(OC)n1 | -0.4% |

Screening data deposited in PubChem BioAssay by National Center for Advancing Translational Sciences (NCATS).
